Bioassay records from PubChem.
Rce1 inhib = yeast Ras-converting enzyme inhibition. actives 0.27% (n = 290,000). calls only. yeast membranes, quenched prenylated peptide cleavage fluorescence. AID 2563. Q03530;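 active means fall in fluorescence gain of 50% or more versus controls, with final raw signal at or below 3038400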;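 further: plate controls were neutral control wells for no effect and wells lacking membranes for full effect; tested at 10 µM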
Target sequence (Q03530 whole entry, looked up): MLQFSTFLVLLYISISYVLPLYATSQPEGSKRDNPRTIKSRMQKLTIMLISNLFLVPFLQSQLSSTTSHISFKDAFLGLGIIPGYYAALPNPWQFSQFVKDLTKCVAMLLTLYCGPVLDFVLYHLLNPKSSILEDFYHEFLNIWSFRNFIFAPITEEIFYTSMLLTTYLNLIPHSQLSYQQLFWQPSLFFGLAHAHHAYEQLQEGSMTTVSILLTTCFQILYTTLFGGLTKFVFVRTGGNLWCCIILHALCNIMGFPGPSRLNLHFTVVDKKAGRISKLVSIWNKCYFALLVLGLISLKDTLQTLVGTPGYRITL
Yeast UUG start = yeast start codon fidelity modulation; S. cerevisiae UUG-firefly luciferase reporter, luminescence/redox ratio; activity score, % at 18.7 µM; actives 0.13% (n = 350,000); AID 602363;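 active means replicate mean at a twofold rise or more, about +100% in these data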;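 further: firefly luciferase made from a UUG start codon reports start codon fidelity; reporter light over untreated wells divided by growth signal over untreated wells; some hits fall short of that in this replicate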
PABP FP inh = PABP-poly(A) binding inhibition; PABP-poly(A) RNA binding, fluorescence polarization; inhibition, % at 35 µM; actives 1% (n = 290,000); AID 2014;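 active means 50% or more with normal probe brightness, or confirmed in later tests; about a fifth of its hits are not listed in these tables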;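 further: calls also rest on retests at 20 µM and on dose response follow-up; controls were probe without protein and protein plus probe with vehicle; some compounds called inactive have numbers as strong as hits; many hits fall short of the cut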
Target sequence (P11940 whole entry, looked up): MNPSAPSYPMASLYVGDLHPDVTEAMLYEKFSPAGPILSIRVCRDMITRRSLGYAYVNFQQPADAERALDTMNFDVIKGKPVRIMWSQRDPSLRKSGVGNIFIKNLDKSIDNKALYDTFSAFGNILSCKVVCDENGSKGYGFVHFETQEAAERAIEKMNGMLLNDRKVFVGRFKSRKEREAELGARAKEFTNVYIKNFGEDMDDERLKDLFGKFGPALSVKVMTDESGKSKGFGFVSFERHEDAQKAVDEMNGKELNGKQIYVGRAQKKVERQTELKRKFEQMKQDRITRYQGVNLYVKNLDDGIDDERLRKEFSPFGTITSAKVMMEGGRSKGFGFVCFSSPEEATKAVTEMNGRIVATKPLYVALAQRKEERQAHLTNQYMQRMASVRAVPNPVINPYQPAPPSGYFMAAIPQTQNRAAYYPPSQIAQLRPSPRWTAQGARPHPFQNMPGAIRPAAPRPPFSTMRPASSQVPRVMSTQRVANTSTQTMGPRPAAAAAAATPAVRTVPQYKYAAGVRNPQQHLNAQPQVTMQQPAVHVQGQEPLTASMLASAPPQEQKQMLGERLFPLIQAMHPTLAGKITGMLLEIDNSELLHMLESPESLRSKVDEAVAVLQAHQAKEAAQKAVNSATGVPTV
CSC inhib = blocks cancer stem cells; cancer stem cell-like cells viability, luminescence; inhibition, % at 7.5 µM; actives 1.1% (n = 300,000);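 active means mean at 75% or more and at least half the replicates too; tested in HMLE shEcad cells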;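 further: 0% = median of negative and 100% = median of positive control wells; the first replicate is given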
eIF4H FP inh = inhibitors of RNA binding by human eIF4H; Q15056; AID 2012; inhibition, % at 35 µM; eIF4H fluorescence polarization binding assay; actives 0.94% (n = 290,000);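 active means 50% or more with normal probe brightness, or confirmed in later tests; about a fifth of its hits are not listed in these tables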;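 further: calls also rest on retests at 20 µM and on dose response follow-up; 0% = protein and probe with vehicle and 100% = probe without protein; strong numbers were not always called active; many hits fall short of the cut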
MT1-MMP act inh = inhibitors of human MT1-MMP activation; P50281; HT1080 RFP-PRO-GFP cells, GFP/RFP ratio fluorescence, overnight; percent of plate control window, DMSO zero; GFP/RFP ratio change, % at 20 µM; actives 0.061% (n = 360,000); AID 651647;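 active means GFP/RFP ratio change of at least 30% with cell ATP level not reduced by more than half and red fluorescence within 50% of control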; further: strong numbers were not always called active
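Read-out: GFP/RFP fluorescence ratio; Test system: RFP-PRO-GFP reporter HT1080 cells; Compound dosing: single-point 20 µM compound, 1% DMSO; Times: overnight compound exposure at 37 °C.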
Env fusion inh = inhibitors of HIV Env-mediated cell fusion; AID 651610; HeLa-JRFL Env/CEM21 cell fusion, luciferase; inhibition, % at 12.3 µM; actives 1.1% (n = 360,000);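 active means mean replicate inhibition score of at least 50 and every replicate individually at or above 50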;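 further: 0% = plate neutral controls and 100% = maraviroc near 300 nM; one replicate is shown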
eIF4H FP inh retest = recorded beside eIF4H FP inh, whose call it bears; inhibition, %; compound at 20 µM; confirmation average;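 mean of two retest wells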
PABP FP inh retest = recorded beside PABP FP inh, whose call it bears; inhibition, %; compound at 20 µM; confirmation repeats;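 mean of two retest wells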
MT1-MMP act inh RFP = further read-out of MT1-MMP act inh, marked with its call; RFP signal change, %; measured here: RFP expression control read;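 0 = vehicle wells; hits needed this value within 50% of zero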
An asterisk follows results filed as active; i = inactive; nt = no result given. Compounds as they come; any-hit rate near 2.9%.

SMILES | Rce1 inhib | Yeast UUG start | PABP FP inh | CSC inhib | eIF4H FP inh | MT1-MMP act inh | MT1-MMP act inh RFP | Env fusion inh | others
Cc1ccc(C(=O)N2[C@@H]3CN(C)C(=O)[C@@]2(C)[C@H]2C(=O)N(C)C(=O)[C@@H]32)cc1 | nt | -9 | nt | nt | nt | 2 | 0 | 13
COC(=O)C1CCN(C(=O)c2ccc(Cl)c(S(=O)(=O)NCc3cccnc3)c2)CC1 | i | -21 | 4 | -12 | 14 | 2 | 0 | -79
CN1CCN(c2ccc(-c3ccc4ccccc4n3)cc2)CC1 | i | nt | -6 | nt | -10 | 0 | 1 | 30
NC(=O)CC(NC(=O)c1ccccc1)c1ccc(NC2CCCCC2)c([N+](=O)[O-])c1 (stereo unspecified) | i | -16 | -8 | -8 | 0 | 13 | 5 | 13
Cc1sc2c3ccsc3ccc2[n+]1C | i | nt | -3 | 18 | -3 | -2 | 1 | 2
CCOC(=O)C1CCN(C(=O)CCCn2nc(CC)n3c(cc4occc43)c2=O)CC1 | i | -1 | 13 | -8 | 3 | 2 | 2 | 0
CS(=O)(=O)N1CCC(C(=O)Nc2cccc(Cl)c2)CC1 | i | nt | 3 | 21 | -8 | 0 | 4 | 2
O=c1c2nnn(-c3ccccc3)c2ncn1C/C=C/c1ccccc1 | i | 1 | -6 | 5 | -3 | 8 | -2 | -50
CCN(CC)c1ccc(/C=N/N(c2ccccc2)c2ccccc2)c(O)c1 | i | -12 | 5 | 53 | -2 | 4 | 1 | 18
CN(CC(=O)Nc1ccccc1Br)C(=O)CN1CCN(Cc2cccc(Cl)c2)CC1 | nt | -7 | nt | nt | nt | 0 | -1 | 25
O=C(CNC(=O)c1cncc(Br)c1)Nc1ccc(F)c(F)c1F | i | -6 | -4 | -27 | -6 | 1 | 2 | 7
COc1ccc(NC(=O)CCCN2C(=O)C(c3ccccc3)Oc3cccnc32)cc1 (stereo unspecified) | i | -8 | nt | -5 | nt | -2 | -2 | 9
COC(=O)c1ccc(C)c(NC(=O)CCSc2ccccc2)c1 | i | -1 | 11 | -1 | 12 | -2 | -2 | nt
Cc1c(NC(=O)C2CCCN2S(=O)(=O)c2ccccc2)c(=O)n(-c2ccccc2)n1C (stereo unspecified) | i | -10 | 3 | -8 | -7 | 0 | 9 | nt
Cc1cccc(CSc2nnc(N)n2-c2ccccc2)c1 | i | -25 | -9 | -1 | 0 | -1 | -9 | -5
O=C(Nc1nccs1)C(F)(F)C(F)(F)C(F)(F)C(=O)Nc1nccs1 | i | -18 | -5 | 7 | 6 | 2 | 0 | -4
CC1CCCCN1CC(=O)Nc1sc2c(c1C#N)CCC2 (stereo unspecified) | i | nt | 54* | -11 | 69* | -7 | -6 | -34
O=C(Nc1ccccc1C(=O)NC(Cc1c[nH]c2ccccc12)C(=O)O)c1ccco1 (stereo unspecified) | i | -1 | 6 | -3 | -2 | 0 | 6 | nt
Cc1ccc(Sc2ccc(N)cn2)cc1 | i | -28 | -16 | 3 | -8 | 3 | 1 | 7
CN(Cc1ccccc1)C(=O)COC(=O)CCNC(=O)c1ccccc1Cl | i | -4 | -12 | -7 | 0 | 5 | 7 | 11
Cn1cc(/C=C(\C#N)C(=O)Nc2ccccc2O)c2ccccc21 | i | -9 | 6 | nt | 4 | -27 | -9 | nt
CCOc1ccc(NC(=O)CN(C)C(=O)COc2cccc(CC)c2)cc1OCC | i | 8 | nt | -10 | nt | 2 | 1 | 3
CC(C)c1ccc(C(=O)Nc2nnc(S(=O)(=O)N3CCOCC3)s2)cc1 | i | -12 | 2 | 8 | -20 | 2 | -3 | -4
CCCc1nnc(SCC(=O)N2C(C)CCCC2C)n1CCCOC (stereo unspecified) | i | nt | -5 | -6 | -7 | -1 | 0 | -4
COc1ccc(C2CC(c3ccccc3)=NN2C(=O)COC(=O)c2cccnc2Cl)cc1 (stereo unspecified) | i | nt | 5 | -6 | 0 | 0 | -2 | -19
Cn1c(=O)c2c(SCC(=O)c3ccccc3)nc(C3CC3)nc2n(C)c1=O | i | 20 | -2 | -20 | -10 | -4 | -10 | nt
O=C(Nc1ncccc1O)c1cccc(S(=O)(=O)N2CCCc3ccccc32)c1 | i | nt | nt | -4 | nt | 2 | -2 | nt
O=C(/C=C/c1cccc(C(F)(F)F)c1)NNC(=O)c1ccncc1 | nt | -23 | nt | nt | nt | -3 | 1 | 2
Cc1ccc(CNC(=O)Cc2ccc(-c3ccccc3)cc2)cc1 | i | nt | 11 | -13 | 2 | 17 | -7 | -68
Cc1ccc(OCCOc2cccc(Br)c2)c([N+](=O)[O-])n1 | i | nt | -19 | 15 | -1 | 4 | -1 | nt
O=C1c2cccc3cc([N+](=O)[O-])cc(c23)C(=O)N1CCN1CCCC1 | i | -4 | 40 | nt | 81 | -46 | -11 | -78 | eIF4H FP inh retest=31;PABP FP inh retest=28
COc1ccc(OC)c(/C=C/C(=O)c2ccc3c(c2)OCO3)c1 | nt | -13 | nt | 24 | nt | -5 | -1 | nt
COC(CNC(=O)C1CCN(S(=O)(=O)c2ccc3nc4c(c(C(=O)O)c3c2)CC(C)CC4)CC1)OC (stereo unspecified) | i | -19 | 26 | -3 | 8 | -4 | 3 | 5
O=[N+]([O-])c1cccnc1SCc1c(F)cccc1Cl | nt | -5 | -2 | 4 | 10 | -3 | -2 | -5
Cc1ccc(S(=O)(=O)N(C)c2ccc(NS(C)(=O)=O)cc2)cc1 | i | -18 | 7 | -11 | -2 | -2 | -1 | nt
COc1ccc(N=Cc2cc(Cl)ccc2O)cc1Cl | i | nt | 2 | -4 | 1 | 3 | 5 | 2
CCN(CC)c1nc(N2CCN(CCO)CC2)nc2ccccc12 | i | -27 | 11 | -8 | -3 | 3 | 0 | -6
O=C(N/N=C/C=C/c1ccccc1)c1cnccn1 | i | -5 | -11 | -4 | 4 | -9 | 1 | -47
COc1nc2ccc(C)cc2cc1-c1noc(-c2cccnc2)n1 | i | -21 | 0 | -11 | 3 | 3 | 4 | nt
Cc1ccc(CSc2nnc(-c3cccc(S(=O)(=O)N4CCOCC4)c3)n2C2CCCC2)cc1 | i | nt | -10 | 4 | 5 | -1 | -6 | 10
O=C(O)CCC(=O)N1CCc2cc(S(=O)(=O)NCc3ccc(Cl)cc3)ccc21 | i | 8 | 14 | -2 | -3 | -2 | 2 | 10
CCn1c(SCc2ccccc2)nc2ccccc2c1=O | i | -6 | nt | nt | nt | 1 | 3 | 16
CCOC(=O)N1CCC(NS(=O)(=O)c2ccccc2)CC1 | i | nt | -4 | -6 | -1 | 2 | 6 | 2
CCn1c(NCc2ccc3c(c2)OCO3)nc2ccccc21 | i | 5 | 6 | 9 | -6 | 0 | 2 | -67
O=C(NCc1ccncc1)c1nc(-c2cccs2)no1 | i | nt | -18 | -12 | -2 | -1 | -4 | -2
Cc1cc(C)n(-c2nnc(C)c(=O)[nH]2)n1 | i | 6 | 11 | -12 | 3 | -1 | 0 | -32
Cc1ccc(S(=O)(=O)NC(C)(C)CN2CCC(Cc3ccccc3)CC2)cc1 | i | 7 | 1 | nt | 2 | 9 | -5 | -9
CCn1cc(/C=N/NC(=O)c2cc3c(ccc4ccccc43)o2)c2ccccc21 | i | -12 | -10 | 17 | -13 | -2 | -1 | nt
Cc1csc(SCC(=O)Nc2cc(S(=O)(=O)N3CCOCC3)ccc2N2CCOCC2)n1 | i | 4 | 8 | 0 | -7 | -2 | 0 | 11
COc1ccccc1N/C=C(\C#N)c1nc2ccccc2[nH]1 | i | nt | 2 | -4 | -7 | 1 | 5 | -83
COc1ccccc1C1CCN(c2ccc([N+](=O)[O-])c(OC)c2)CC1 | i | -11 | 0 | 22 | -3 | 7 | -18 | -1
COc1ccc(N(CC(=O)N2CCc3ccccc3C2)S(=O)(=O)c2ccccc2)cc1 | i | -13 | 9 | -17 | -6 | -8 | -3 | 15
Cc1ccc2ncnc(Nc3ccccc3)c2c1 | i | nt | 1 | 33 | -2 | -7 | -5 | 13
CCC(=O)N1c2ccc(S(=O)(=O)N3CCCCC3)cc2CC1C (stereo unspecified) | i | -6 | -6 | -5 | 0 | 3 | 3 | 5
COc1ccc(-n2c(C)nc3c(cnn3-c3ccccc3)c2=O)cc1 | i | -3 | 5 | 8 | -1 | -2 | -13 | 27
CC1CCCN(CCCNC(=O)C2CCN(S(=O)(=O)N3CCC4(CC3)OCCO4)CC2)C1 (stereo unspecified) | i | -14 | 2 | -9 | 4 | -1 | 6 | -2
CCc1cc2c(=O)n(N)c(CCC(=O)O)nc2s1 | i | -2 | 12 | -8 | 3 | 1 | 10 | nt
Cc1c(C(=O)NC(C)C2CC3CCC2C3)cccc1[N+](=O)[O-] (stereo unspecified) | i | -3 | -8 | -6 | -4 | -1 | -3 | -2
O=C(NCc1cccs1)c1cccc(S(=O)(=O)N2CCCCC2)c1 | i | -8 | -3 | -2 | -2 | 6 | 5 | 44
CN(C)C(=O)/C(=C/c1cn(-c2ccccc2)nc1-c1cccc([N+](=O)[O-])c1)NC(=O)c1ccccc1 | i | -12 | 3 | nt | -14 | 2 | 0 | -16
Later entries
SMILES | Rce1 inhib | Yeast UUG start | PABP FP inh | CSC inhib | eIF4H FP inh | MT1-MMP act inh | MT1-MMP act inh RFP | Env fusion inh | others
CC(=NC1CCN(Cc2ccccc2)CC1)c1c(O)[nH]c(=O)[nH]c1=O | i | -22 | 7 | -6 | -5 | 8 | 0 | 8
CCN(CC)C(=O)/C(=C\c1ccc(Br)cc1)NC(=O)c1ccccc1OC | i | nt | 1 | -14 | 1 | 5 | 2 | 9
COc1ccc(OC)c(C(=O)C(=O)c2cc(OC)ccc2OC)c1 | nt | -10 | nt | nt | nt | 4 | -3 | -8
COc1ccc(N/N=C(/C(N)=O)C2=NC(C)(C)Cc3ccccc32)cc1 | i | nt | 0 | 60 | 5 | -2 | -9 | 21
O=C1OC(c2ccccc2)(c2ccccc2)c2ccccc21 | nt | -14 | nt | nt | nt | -2 | 2 | -24
CCC1=NC(c2ccc(OC)cc2OC)N(O)C1(C)C (stereo unspecified) | i | -19 | -7 | -8 | -1 | 0 | 0 | -12
COc1cc(CNc2ncnc3c2[nH]c2ccc(C)cc23)cc(OC)c1 | i | -4 | -2 | 7 | -17 | 4 | -13 | 39
Nn1c(SCC(=O)Nc2ccc3c(c2)OCO3)nnc1C(F)(F)F | i | nt | 4 | -23 | 1 | -1 | 2 | 14
Cn1c(SCC(=O)c2ccccc2F)nnc1C1CC1 | i | -7 | -6 | -2 | 5 | -13 | -2 | -46
COc1ccc(Nc2nc3c(c(=O)n(C)c(=O)n3C)n2CCO)cc1 | i | nt | 7 | -12 | 0 | nt | nt | nt
Cc1c(NC(=O)c2cccc(NS(C)(=O)=O)c2)c(=O)n(-c2ccccc2)n1C | i | -11 | -3 | -16 | -8 | 1 | 6 | 5
NC(=O)c1cc(-c2ccncc2)nc2ccc(Cl)cc12 | i | nt | 2 | -3 | -1 | -1 | 0 | -2
COc1ccc(OC)c(NC(=O)Nc2nnc(N3CCC(C)CC3)s2)c1 | i | -17 | -1 | 5 | 8 | 4 | 4 | -7

Among those listed so far, 3 have a furan ring, fused or not:
SMILES | Rce1 inhib | Yeast UUG start | PABP FP inh | CSC inhib | eIF4H FP inh | MT1-MMP act inh | MT1-MMP act inh RFP | Env fusion inh | others
CCOC(=O)C1CCN(C(=O)CCCn2nc(CC)n3c(cc4occc43)c2=O)CC1 | i | -1 | 13 | -8 | 3 | 2 | 2 | 0
O=C(Nc1ccccc1C(=O)NC(Cc1c[nH]c2ccccc12)C(=O)O)c1ccco1 (stereo unspecified) | i | -1 | 6 | -3 | -2 | 0 | 6 | nt
CCn1cc(/C=N/NC(=O)c2cc3c(ccc4ccccc43)o2)c2ccccc21 | i | -12 | -10 | 17 | -13 | -2 | -1 | nt
